Bioassay records: PubChem, several laboratories
HNF4A DNA FP = change in binding of human HNF4 alpha to DNA. 360,000 tested, 0.3% active. HNF4a-FITC DNA binding, fluorescence polarization, 1 h. activity change, % at 10 µM. P41235; in the data active = activity change above about 30%, passing the limit was not always enough;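 note: controls were the assay level and a saturating level of protein; the project sought stronger binding though the title names inhibitors; some compounds called inactive have numbers as strong as hits; positive values seem to mean higher polarization but the record does not say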
Target sequence (P41235 whole entry, looked up): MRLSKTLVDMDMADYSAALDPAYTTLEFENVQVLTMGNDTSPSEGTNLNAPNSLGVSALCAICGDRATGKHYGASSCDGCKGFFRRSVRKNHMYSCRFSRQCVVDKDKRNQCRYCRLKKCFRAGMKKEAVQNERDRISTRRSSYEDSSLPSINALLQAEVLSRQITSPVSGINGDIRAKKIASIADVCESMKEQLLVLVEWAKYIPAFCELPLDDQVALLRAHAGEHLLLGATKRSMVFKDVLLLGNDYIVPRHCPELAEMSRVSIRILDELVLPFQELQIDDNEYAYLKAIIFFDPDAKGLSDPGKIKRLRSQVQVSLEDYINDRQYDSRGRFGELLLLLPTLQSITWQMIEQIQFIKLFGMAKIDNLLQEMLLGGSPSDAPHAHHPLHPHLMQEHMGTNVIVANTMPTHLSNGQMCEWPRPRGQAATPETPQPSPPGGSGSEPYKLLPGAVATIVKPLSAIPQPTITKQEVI
E coli growth = blocks Escherichia coli growth. OD600, 23 h; stronger effect = lower value. OD600 absorbance (test concentration not listed). 330,000 tested, 0.21% active. AID 1053175;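 active = OD600 absorbance below the run mean of sample wells minus 3.6 SD, in any replicate, cut at about 0.56 in these data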;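 note: stock transfer was 300 nL into about 60 µL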
Vif A3G = HIV-1 Vif–A3G interaction blockers – biochemical, TR-FRET, GST-Vif 1-94, biotin-A3G peptide, dose response retest, primary screen (AID 1117319) | TR-FRET GST-Vif / biotin-A3G peptide binding; higher % means a stronger effect; test concentration not given here; strong numbers were not always called active | inhibition, %, or IC50 in µM where a hit was titrated | 260,000 tested, 0.57% active;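 active = above the screen mean plus three standard deviations and confirmed in dose response; inconclusive = results disagree or hit not tested in dose response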;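 note: Vif residues 1-94 fused to GST binding biotinylated APOBEC3G peptide 110-148; 0% = full assay without inhibitor and 100% = GST in place of GST-Vif; retest series ran down from 100 µM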
* hit, by the source's call; u = inconclusive; x = no result given; & = joins results of further samples. Some of the compounds tested. The share of hits here may be higher or lower than overall.

The opening 2 records, ahead of the listing:
SMILES	HNF4A DNA FP	E coli growth	Vif A3G
COc1ccc(C(=O)N(NC(=O)Oc2ccccc2)C(C)(C)C)cc1	-1.7	0.72	x
O=C(CNC(=O)C1CCCCC1)OCc1cc(=O)oc2ccc3ccccc3c12	-2.1	0.69	x

Results, repeating the preview:
SMILES	HNF4A DNA FP	E coli growth	Vif A3G
COc1ccc(C(=O)N(NC(=O)Oc2ccccc2)C(C)(C)C)cc1	-1.7	0.72	x
O=C(CNC(=O)C1CCCCC1)OCc1cc(=O)oc2ccc3ccccc3c12	-2.1	0.69	x
CCSc1nc2sc3c(c2c(=O)n1C1CCCCC1)CCN(C)C3	7.4	0.69	x
Cc1cccc(Nc2nc(N)c([N+](=O)[O-])c(N3CCCC(C)C3)n2)c1 (stereo unspecified)	-0.8	0.72	x
C=C/C(C)=C/C[C@H]1C(=C)CCC2[C@](C)(C(=O)O)CCC[C@@]21C (stereo partly specified)	-37	0.75	x
C=CCNc1nc(N)c(C(=C(C#N)C#N)c2ccc(Br)cc2)s1	1.4	0.68	x
CN1C(=O)/C(=C/c2ccccc2OCc2ccccc2)NC1=S	0.5	0.67	x
COC(=O)c1c(NC(=O)COC(=O)[C@@H](NS(=O)(=O)c2ccccc2)C(C)C)sc2c1CCC2	1.0	0.72	x
Cc1nn(C)c(-c2n[nH]c(=S)n2-c2ccccc2)c1Cl	-1.6	0.68	x
S=C(Nc1ccc(OCc2ccccc2)cc1)Nc1cccc(Cl)c1Cl	0.4	0.71	x
CSc1nc(N)nc(SCC(=O)Nc2cccc(F)c2)c1C#N	-3.0	0.65	x
CC(Sc1nncs1)C(=O)Nc1ccc(Cl)cn1 (stereo unspecified)	2.9	0.69	x
CCCCCC(=O)NNC(=O)Nc1ccccc1	0.3	0.69	x
CC[C@@]1(c2ccccc2OC)C(=O)N(C(=O)OC)N1C(=O)OC	-4.9	0.66	x
CN(C)c1ccc(N=Nc2ccccc2C(=O)OCC(=O)N(C)c2ccccc2)cc1	2.9	0.65	x
CC(NC(=O)CSC(=S)N(C)C)C12CC3CC(CC(C3)C1)C2 (stereo unspecified)	-0.3	0.7	x
CCOC(=O)c1c(NC(=O)c2ccc(Cl)cc2)csc1C	1.0	0.67	x
CCOCCCNCC(O)c1ccccc1 (stereo unspecified)	2.4	0.69	x
COc1ccc(-n2c(SCc3ccc([N+](=O)[O-])cc3)nnc2-c2ccccc2)cc1	-0.5	0.68	x
CCN1CCN(Cc2ccc(NC(=O)c3ccc(C)c(NC(=O)c4cncc(-c5cccs5)c4)c3)cc2C(F)(F)F)CC1	3.0	0.63	x
Cc1cc(OCCn2ccnc2)ccc1C(C)C	-5.4	0.69	x
Cc1nn(-c2ccccc2)c2c1C(c1ccc(Br)s1)C(C#N)=C(N)O2 (stereo unspecified)	-0.4	0.67	x
Cc1ccc(Nc2nc(N)nc(CSC(=S)N3CCN(c4ccccc4)CC3)n2)cc1	4.2	0.73	x
CC[C@]12c3[nH]c4cc(-c5ccco5)ccc4c3CCN1C(=O)[C@@H](CC(=O)NC/C=C(\C)CCC=C(C)C)C[C@@H]2C(=O)N1CCN(C(=O)c2ccco2)CC1	2.2	0.74	x
COc1ccc(C(=O)Nc2ccccc2-c2ccccc2)cc1Cl	2.4	0.64	x
CC(O)c1cc2c(s1)c1cnn(Cc3ccccc3F)c(=O)c1n2C (stereo unspecified)	-0.2	0.69	x
COc1ccc(C)cc1NCc1cc(=O)oc2cc(-c3ccccc3)c(O)cc12	-1.8	0.73	x
O=C(C1=NN[C@@H]2C(=O)N(c3cccc(C(F)(F)F)c3)C(=O)[C@H]12)c1ccc2ccccc2n1	-0.1	0.71	x
O=C(Cc1ccc(S(=O)(=O)N2CCCCC2)s1)Nc1ccc(F)cc1F	1.0	0.73	x
Cc1ccc(C(=O)NC(=S)Nc2cccc(NC(=O)c3ccccc3)c2)cc1[N+](=O)[O-]	2.2	0.73	x

Some values from the entries so far.
`COc1ccc(C)cc1NCc1cc(=O)oc2cc(-c3ccccc3)c(O)cc12` @ HNF4A DNA FP = -1.8
`COc1ccc(C(=O)Nc2ccccc2-c2ccccc2)cc1Cl` @ E coli growth = 0.64
`CC[C@]12c3[nH]c4cc(-c5ccco5)ccc4c3CCN1C(=O)[C@@H](CC(=O)NC/C=C(\C)CCC=C(C)C)C[C@@H]2C(=O)N1CCN(C(=O)c2ccco2)CC1` @ E coli growth = 0.74
`CC(O)c1cc2c(s1)c1cnn(Cc3ccccc3F)c(=O)c1n2C` (stereo unspecified) @ E coli growth = 0.69

Whole records, quoted from the list:
Record of `Cc1nn(-c2ccccc2)c2c1C(c1ccc(Br)s1)C(C#N)=C(N)O2` (stereo unspecified) : HNF4A DNA FP = -0.4; E coli growth = 0.67; Vif A3G = x
Record of `COc1ccc(C)cc1NCc1cc(=O)oc2cc(-c3ccccc3)c(O)cc12` : HNF4A DNA FP = -1.8; E coli growth = 0.73; Vif A3G = x
Record of `O=C(Cc1ccc(S(=O)(=O)N2CCCCC2)s1)Nc1ccc(F)cc1F` : HNF4A DNA FP = 1.0; E coli growth = 0.73; Vif A3G = x

(more compounds)
SMILES	HNF4A DNA FP	E coli growth	Vif A3G
O=C1N/C(=C\c2ccccc2)C(O)=C1C=NCc1ccccc1	0.8	0.69	x
Cc1ccc(Nc2nc(NCCCN3CCOCC3)nc(N)c2[N+](=O)[O-])cc1C	-1.9	0.69	x
CCc1ccc(NC(=O)C(C)OC(=O)CCC(=O)c2cccs2)cc1 (stereo unspecified)	-1.1	0.7	x
CCOC(=O)c1cc(-c2ccccc2)n(CCC(=O)N2CCN(c3ccccn3)CC2)c1C	1.0	0.73	x
O=C(NCCc1nc2ccccc2[nH]1)/C(=C/c1ccc2c(c1)OCO2)NC(=O)c1ccc(Cl)cc1Cl	3.3	0.71	x
COc1ccc(CC(=O)NCc2nnc(SCC(=O)N3CCN(c4ccccc4)CC3)n2C)cc1	1.6	0.7	x
NNc1nc2ccc(Cl)cc2s1	0.3	0.68	x
COc1cccc(NC(=O)Nc2ccncc2)c1	0.4	0.69	x
CCC1=NN=C(c2ccc(F)cc2)C(c2c[nH]c3ccccc23)N1O (stereo unspecified)	-2.5	0.68	x
COc1ccccc1N1CCN(C(=O)CSc2ncnc3scc(-c4ccccc4)c23)CC1	3.5	0.66	x
Cc1cc2nc(SCCOC(=O)Nc3ccccc3)nc(C)c2cc1C	1.4	0.71	x
COC(=O)C1=C(N)Oc2cc(C)n(Cc3ccncc3)c(=O)c2C1c1cccnc1 (stereo unspecified)	0.3	0.71	x
Cc1c(CNC2CCC(C)CC2)c(C(=O)O)c(C)n1Cc1ccccc1 (stereo unspecified)	0.0	0.69	x
O=C(COC(=O)c1cccc(S(=O)(=O)N2CCCCC2)c1)NC1CCCc2ccccc21 (stereo unspecified)	-2.0	0.7	x
COc1ccc(NC(=O)C(NC(=O)c2ccc(=O)[nH]c2)c2ccc(OC)cc2)cc1 (stereo unspecified)	1.9	0.71	x
Cc1cccc2nc(-c3ccccc3)nc(N3CCC(O)(c4ccc(Cl)cc4)CC3)c12	3.0	0.7	x
O=C(O)c1cn(Cc2ccccc2)c2ccccc2c1=O	1.9	0.69	x
O=C(c1ccc(F)cc1)N1CCCCC(S(=O)(=O)c2ccccc2)C1=O (stereo unspecified)	0.9	0.66	x
O=C(Oc1ccc2c(c1)O/C(=C\c1ccncc1)C2=O)c1ccccc1	-0.6	0.73	x
C=C(C)CNC(=S)Nc1sc2c(c1C(=O)OCC)CC(C)(C)OC2	6.0	0.69	x
O=C(COc1ccccc1-c1ccccc1)NCCN1C(=O)S/C(=C\c2cccnc2)C1=O	-4.7	0.68	x
O=C(c1ccccc1)n1c(=S)nc2ccccn21	1.0	0.65	x
COC(=O)c1sc(N)c(C(=O)OC)c1COC(=O)CNS(=O)(=O)c1cccc(C#N)c1	4.0	0.71	x
Cc1ccc(-n2c(C)cc(C(=O)COc3cccnc3[N+](=O)[O-])c2C)cc1	0.5	0.69	x
COc1ccccc1NC(=O)C1=C(C)NC2=C(C(=O)CC(c3ccc(OC)c(OC)c3)C2)C1c1coc2ccccc2c1=O (stereo unspecified)	-1.6	0.65	x
Cc1nc2sc(C(c3ccc(F)cc3)N3CCN(C(=O)c4ccco4)CC3)c(O)n2n1 (stereo unspecified)	3.2	0.65	x
Cc1nc(SCc2ccccc2)c([N+](=O)[O-])[nH]1	-3.4	0.68	x
Cc1cc(C)nc(SCc2ccc(C(=O)NNC(=O)Nc3cccc(Cl)c3)cc2)n1	2.0	0.7	x
N/C(=N\OC(=O)COc1ccc(Br)cc1Cl)c1ccccn1	-3.1	0.68	x
Cc1ccc(NC(=O)c2ccc(OCC3CCCO3)cc2)c(C)c1 (stereo unspecified)	-4.5	0.69	x
COc1cccc(CC(NC(C)=O)C(=O)NC2CCN(c3c4c(nc5ncnn35)CCC4)CC2)c1 (stereo unspecified)	-4.0	0.67	x
CCOc1ccccc1-c1c2cc(O)c(=O)cc-2oc2cc(O)c(O)cc12	-89	0.71	x
Cc1ccc(-n2ncc(Br)c(Br)c2=O)cc1	-2.2	0.64	x
COc1ccc(C(=O)COC(=O)CCCn2c(=O)oc3ccccc32)cc1	3.4	0.69	x
O=C(Nc1ccc(Cl)cc1C(F)(F)F)C(Sc1nnc(-c2cccs2)o1)c1ccccc1 (stereo unspecified)	-2.0	0.67	x
O=C(Nc1ccccn1)c1ccc(COc2ccccc2Cl)o1	1.2	0.67	x
CCOC(=O)C1CCN(Cc2cc(Cl)c3ccccc3c2O)CC1	-4.0	0.68	x
C[C@@H]1CC(=O)[C@H]2CC(CO)=CCC[C@@H]2[C@@]1(C)CC/C(=C/CO)CO	-2.5	0.77	x
CC(C)(C)c1ccc(C(=O)Nc2ccc(C=C(C#N)C#N)cc2)cc1	-2.5	0.67	x
CC(C)Cn1c(/C=C/c2ccccc2)nc2ccccc21	0.7	0.67	x
Cc1ccc(NC(=O)COC(=O)C(NS(=O)(=O)c2ccc(Cl)cc2)C(C)O)cc1 (stereo unspecified)	1.6	0.7	x
CCc1ccc(Nc2nnc(SC3CCOC3=O)s2)cc1 (stereo unspecified)	-3.2	0.66	x
Nc1nonc1C(=O)OCC(=O)c1ccc(Cl)cc1	-0.5	0.67	x
Cc1ccc(-n2nnnc2C(Cl)c2nnnn2-c2ccc(C)cc2)cc1	1.1	0.69	x
Cc1nn(C)cc1CNC(=O)COc1ccc(Cl)cc1Cl	4.3	0.7	x
NC(=O)Cc1ccc2sc(-c3ccccc3)nc2c1	3.1	0.71	x
CCOC(=O)C(=NC1CCCCC1)NNc1cccc(C(F)(F)F)c1	-3.9	0.74	x
COc1ccc(-c2nc3cnccn3c2NCc2ccccc2)cc1SC1CCCCC1	9.1	0.73	x
O=C(/C=C\c1ccc(-c2ccccc2)o1)c1ccccc1	0.8	0.67	x
O=C(Nc1cccc(Br)c1)c1ccccc1-c1ccccc1	-3.9	0.68	x

The results go on:
SMILES	HNF4A DNA FP	E coli growth	Vif A3G
CC1CC(C)(C)N(C(=O)CN2C(=O)c3ccccc3C2=O)c2ccccc21 (stereo unspecified)	-2.1	0.66	x
CCOC(=O)c1c(C)n(-c2ccc(OC)cc2)c2c(C/C(C)=N/O)c(Br)c(OC)c(O)c12	2.2	x	0%
Cc1n[nH]c(=S)n1/N=C/c1ccccc1OCc1ccc(Cl)cc1	51*	x	-4%
O/N=C/c1ccc(OCC(O)COc2ccc(/C=N/O)cc2)cc1	3.7	x	-4%
C#CCOCCOCCOCCNc1nc(N2CCN(C(=O)C([C@@H](C)CC)n3cc(C(N)CC(C)C)nn3)CC2)nc(N2CCN(C(=O)[C@H](CCC(=O)O)n3cc(C(N)CC(C)C)nn3)CC2)n1 (stereo partly specified)	5.3	x	-2%
Cc1ccc(/C=N\NC(=O)c2csnn2)cc1	-2.2	x	11%
Cc1cc(C)n(-c2nc(NCCC(C)C)c3c4c(sc3n2)COC(C)(C)C4)n1	1.9	x	8%
O=[N+]([O-])c1cc(/C=N/N2CCN(C3c4ccccc4-c4ccccc43)CC2)ccc1Cl	2.0	x	-1%
C/C(=N/NS(C)(=O)=O)c1ccc2ccccc2c1	-40	x	1%
CCN(CC)CCCOc1nc(C)nc2c1oc1ccccc12	1.7	x	5%
CCOC(=O)C1=C(N)n2c(s/c(=C\c3cccs3)c2=O)=C(C(=O)OCC)C1c1cccs1 (stereo unspecified)	0.9	x	0%&-6%
CN(C)c1ccc(/C=N/c2cc(-c3ccccc3)nn2-c2ccccc2)cc1	-0.2	x	7%
CC1(C)CC(=O)/C(=C(/O)Cc2ccccc2)C(=NCCc2ccccc2)C1	-4.9	x	0%
O=C(NCc1cc(C(F)(F)F)cc(C(F)(F)F)c1)C12CN(Cc3ccccc3)CC1C(c1cccc([N+](=O)[O-])c1)=NO2 (stereo unspecified)	-0.7	x	11%
COc1ccc(/C=N/Nc2ccccc2)cc1Cn1nc(C)c([N+](=O)[O-])c1C	0.7	x	4%
CC(/C=N/Nc1nc(C)cc(C)n1)=C\c1ccc(C(C)C)cc1	-1.5	x	-1%
Cn1cccc1/C=N/NC(=O)c1cccnc1	-0.2	x	3%
N#Cc1c(/N=C/c2ccco2)sc2c1CCCCC2	2.3	x	u
CCCc1nc2ccccc2c(=O)n1/N=C/c1ccccc1O	-0.1	x	-3%
Cc1ccc(S(=O)(=O)N(C)C)cc1NC(=O)COC(=O)c1c(C)noc1C	-3.0	x	19%
C/C(=N\NC(=O)CNc1ccccc1Cl)C(C)(C)C	5.6	x	u
